DUX4 inh: blocks DUX4-driven transcriptional activation; 293T-iDUX4 ZSCAN4-Gaussia luciferase reporter, 24 h; hits give low values; AID 1224904; actives 0.8% (n = 37,000); activity change, negative = inhibition, % (concentration not given with the values);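 active = -10% or lower and over 25 points stronger than a control reporter; inconclusive = -10% or lower with a smaller gap; inactive = above -10%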;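 also: 0% = median of neutral control wells and -100% = median of positive control wells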
DUX4 inh difference: recorded beside DUX4 inh, whose call it bears; Gaussia minus Italica difference, %; measured here: selective DUX4 reporter inhibition;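 worked out from the two reporters; negative = selective loss of the DUX4 reporter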
DUX4 inh control: second read-out of DUX4 inh, no call of its own (marks repeat the call); activity change, negative = inhibition, %; measured here: Italica tet-on control reporter;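 0 = neutral control and -100 = positive control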
Numbers without * were called inactive; u = inconclusive; x = not tested or not shown; & = joins results of further samples. Some of the compounds tested, so the mix of outcomes need not match the whole.

SMILES | DUX4 inh | DUX4 inh difference | DUX4 inh control
N#C[C@H]1[C@@H](c2ccc(C#Cc3ccccc3F)cc2)[C@@H](CO)N1C(=O)C1CCCCC1 | -2.2 | -4.0 | 1.7
COc1ccc(S(=O)(=O)N(C)C[C@H]2Oc3c(cccc3N(C)C)C(=O)N([C@@H](C)CO)C[C@H]2C)cc1 | 2.2 | 1.4 | 0.8
O=C(C[C@@H]1C[C@@H]2c3cc(NC(=O)Cc4ccncc4)ccc3O[C@@H]2[C@@H](CO)O1)NCCc1ccccc1 | 2.9 | -2.9 | 5.8
O=C(C[C@@H]1CC[C@@H]2[C@H](COC[C@H](O)CN2C(=O)Nc2ccc(Cl)c(Cl)c2)O1)NCc1ccc(F)cc1 | 1.2 | 3.7 | -2.5
C[C@@H]1CN([C@@H](C)CO)C(=O)c2cc(N(C)C)ccc2O[C@@H](C)CCCCO[C@H]1CN(C)C(=O)Cc1ccccc1 | 4.1 | 0.5 | 3.6
O=C(CCN1CCCCC1)NCC[C@@H]1CC[C@@H](NC(=O)C2CCOCC2)[C@H](CO)O1 | 2.8 | 0.6 | 2.2
COc1ccc(S(=O)(=O)N2C[C@H](O)COC[C@H]3O[C@H](CC(=O)N[C@@H]4CCN(Cc5ccccc5)C4)CC[C@@H]32)cc1 | -2.1 | -1.1 | -1.0
C[C@@H](NC(=O)C[C@@H]1CC[C@H]2[C@@H](COC[C@H](O)CN2Cc2cc(F)ccc2F)O1)c1ccccc1 | 0.1 | 0.2 | 0.0
CC(=O)N1CCCCN2[C@H](C1)[C@@H](c1ccc(Br)cc1)[C@@H]2CO | 16.0 | 8.8 | 7.3
C[C@@H]1CN([C@@H](C)CO)C(=O)c2cc(NC(=O)NC3CCCCC3)ccc2O[C@H]1CN(C)Cc1ccc(C(=O)Nc2ccccc2N)cc1 | 1.1 | -0.1 | 1.2
CCCC#Cc1ccc2c(c1)O[C@H](CN(C)C(=O)Nc1ccc(OC)cc1)[C@H](C)CN([C@H](C)CO)S2(=O)=O | -2.8 | -0.6 | -2.1
COc1ccc2c3c([nH]c2c1)[C@@H](CO)NCC31CN(Cc2ccccc2F)C1 | 3.6 | -4.2 | 7.8
COc1ccccc1C(=O)Nc1ccc2c(c1)C(=O)N(C)[C@@H]1CC[C@@H](CC(=O)NCc3ccc(Cl)c(Cl)c3)O[C@@H]1CO2 | 1.4 | 0.9 | 0.5
O=C(C1CCCCC1)N1CC2(C1)[C@H](c1ccccc1)[C@H](CO)N2C(=O)c1cccnc1 | 4.1 | 4.8 | -0.7
Cc1cccc(-c2ccc([C@H]3[C@@H](CO)N4C(=O)CN(C(=O)Cc5ccccn5)C[C@@H]34)cc2)c1 | 5.3 | 4.0 | 1.3

The list goes on, overlapping the part above by two compounds.
SMILES | DUX4 inh | DUX4 inh difference | DUX4 inh control
O=C(C1CCCCC1)N1CC2(C1)[C@H](c1ccccc1)[C@H](CO)N2C(=O)c1cccnc1 | 4.1 | 4.8 | -0.7
Cc1cccc(-c2ccc([C@H]3[C@@H](CO)N4C(=O)CN(C(=O)Cc5ccccn5)C[C@@H]34)cc2)c1 | 5.3 | 4.0 | 1.3
Fc1cccc(-c2ccc(C3[C@H]4CNC[C@@H]3N4CC3CCOCC3)cc2)c1 (stereo partly specified) | 17.0 | -0.3 | 17.3
O=C(NC1CCCC1)N1CCCCN2[C@H](CO)[C@@H](c3ccc(-c4cccnc4)cc3)[C@@H]2C1 | -3.5 | -4.3 | 0.8
CN(C)CC#Cc1ccc([C@@H]2[C@@H](CO)N3C(=O)CN(C(=O)Cc4cccnc4)C[C@H]23)cc1 | 22.7 | 10.5 | 12.1
CC(C)CC#Cc1ccc([C@@H]2[C@H](CO)N3C(=O)CN(C(=O)Nc4ccc(F)cc4)C[C@@H]23)cc1 | -7.5 | 2.1 | -9.6
CN(C)C(=O)[C@@H]1[C@@H](CO)[C@@H]2Cn3c(cccc3=O)[C@H]1N2CC1CCCCC1 | -1.6 | 3.0 | -4.6
C[C@H](CO)N1C[C@H](C)[C@H](CN(C)Cc2ccc(C(F)(F)F)cc2)OCc2cn(nn2)CCCC1=O | -6.2 | -0.2 | -6.0
CN1c2ccc(-c3ccccc3)cc2[C@H]2[C@H](CCN2C(=O)Cc2ccccn2)[C@H]1CO | 2.5 | 12.0 | -9.5
C[C@H](CO)N1C[C@H](C)[C@@H](CN(C)C(=O)CCC(F)(F)F)OCc2cnnn2CCCC1=O | 6.5 | 7.8 | -1.2
O=C(CN1CCOCC1)N1C[C@@H]2N[C@H](C1)C2c1ccc(/C=C/c2ccccc2)cc1 (stereo partly specified) | -4.9&1.9 | -6.2&3.0 | 1.4&-1.1
CCCNC(=O)N1C[C@@H]2N[C@H](C1)C2c1ccc(-c2cccc(OC)c2)cc1 (stereo partly specified) | u | 5.5 | -6.0
O=C(c1cccc(F)c1)N1CC2(C1)[C@H](c1ccccc1)[C@H](CO)N2C(=O)C1CC1 | -1.3 | -0.1 | -1.2
CN1c2ccc(-c3ccccc3)cc2[C@@H]2[C@@H](CCN2C(=O)c2ccncc2)[C@@H]1CO | 7.3 | 1.2 | 6.0
CCNC(=O)[C@H]1[C@H](CO)[C@H]2Cn3c(ccc(C4=CCCC4)c3=O)[C@@H]1N2Cc1ccccc1 | -8.6 | -0.5 | -8.1
CCN1CC(=O)N2[C@@H](CO)[C@H](c3ccc(-c4ccccc4F)cc3)[C@@H]2C1 | 11.9 | -0.1 | 11.9
CCCN(C)C[C@@H]1OCCCC[C@H](C)Oc2ccc(NS(=O)(=O)c3ccc(C)cc3)cc2C(=O)N([C@@H](C)CO)C[C@H]1C | -1.2 | -3.1 | 1.9

2 of the compounds above, with tabs:
structure	DUX4 inh	DUX4 inh difference	DUX4 inh control
C[C@@H]1CN([C@@H](C)CO)C(=O)c2cc(NC(=O)NC3CCCCC3)ccc2O[C@H]1CN(C)Cc1ccc(C(=O)Nc2ccccc2N)cc1	1.1	-0.1	1.2
Fc1cccc(-c2ccc(C3[C@H]4CNC[C@@H]3N4CC3CCOCC3)cc2)c1 (stereo partly specified)	17.0	-0.3	17.3

Next results:
SMILES | DUX4 inh | DUX4 inh difference | DUX4 inh control
O=C(C[C@H]1C[C@@H]2c3cc(NC(=O)Nc4ccc(C(F)(F)F)cc4)ccc3O[C@@H]2[C@@H](CO)O1)NC1CCCCC1 | u | x | x
CN(C)CCCNC(=O)C[C@H]1CC[C@H]2[C@H](COc3ccc(NC(=O)NC4CCCC4)cc3C(=O)N2C)O1 | 1.7 | -2.0 | 3.7
CC(C)(O)C#Cc1ccc([C@H]2[C@H](CO)N3CCCCN(C(=O)c4ccc(F)cc4)C[C@@H]23)cc1 | 20.1 | 15.4 | 4.7
O=C(c1cnccn1)N1CC(=O)N2[C@H](C1)[C@H](c1ccc(C#CCc3ccccc3)cc1)[C@@H]2CO | u | x | x
COc1cccc(CN(C)C[C@H]2OCc3ccccc3-c3c(n(C)c4ccccc34)C(=O)N([C@@H](C)CO)C[C@@H]2C)c1 | u | x | x
CCC(=O)NC[C@H]1[C@H](c2ccccc2)[C@@H](CO)N1C(=O)C1CC1 | -0.5 | 5.2 | -5.7
CS(=O)(=O)Nc1ccc2c(c1)[C@H]1C[C@@H](CC(=O)NCCc3ccccc3)O[C@H](CO)[C@H]1O2 | -2.8 | -1.1 | -1.7
N#C[C@@H]1[C@@H](c2ccccc2-c2cccc(F)c2)[C@H](CO)N1C(=O)CN1CCOCC1 | 14.7 | 2.6 | 12.1
O=C(C[C@H]1CC[C@@H]2[C@H](COC[C@@H](O)CN2Cc2ccccc2F)O1)NCc1ccccc1F | 1.0 | 8.8 | -7.8
C[C@@H]1CN([C@H](C)CO)C(=O)c2c(c3ccccc3n2C)-c2ccccc2CO[C@H]1CN(C)S(=O)(=O)c1ccc(Cl)cc1 | u | x | x
C[C@@H]1CN([C@@H](C)CO)C(=O)c2cc(NS(=O)(=O)c3ccc(F)cc3)ccc2O[C@@H](C)CCCCO[C@H]1CN(C)C(=O)c1ccccc1 | u | x | x
C[C@H]1CN([C@@H](C)CO)S(=O)(=O)c2ccc(C3=CCCCC3)cc2O[C@@H]1CN(C)S(=O)(=O)c1cn(C)cn1 | -2.9 | -4.9 | 1.9
O=C(c1cccc(F)c1)N1CCCCN2[C@@H](CO)[C@@H](c3ccc(-c4cncnc4)cc3)[C@@H]2C1 | 9.7 | 2.6 | 7.1
COc1ccc2c3c(n(C)c2c1)[C@@H](CO)N(C(=O)c1ccc(F)cc1)CC31CCN(C(C)=O)CC1 | 18.3 | 24.1 | -5.8
N#C[C@@H]1[C@H](c2ccc(C3=CCCCC3)cc2)[C@H](CO)N1S(=O)(=O)c1ccccc1 | -4.2 | 0.6 | -4.8
O=C1CN(S(=O)(=O)Cc2ccccc2)C[C@@H]2[C@H](c3ccc(C#CCC4CCCC4)cc3)[C@H](CO)N12 | u | x | x
COc1ccc2c3c(n(C)c2c1)[C@@H](CO)N(C(=O)NC(C)C)CC31CN(CC2CCCC2)C1 | u | x | x
CS(=O)(=O)N1Cc2cc(C(=O)O)nc(-c3cccc(-c4ccccc4F)c3)c2[C@H]1CCO | -0.1 | 2.7 | -2.8
CN(C)C(=O)C[C@H]1C=C[C@H](NC(=O)c2ccc(F)cc2)[C@@H](CO)O1 | 5.1 | 4.8 | 0.4
O=C(NC1CCCC1)N1CC(=O)N2[C@H](CO)[C@@H](c3ccc(-c4cccnc4)cc3)[C@H]2C1 | 11.6 | 2.8 | 8.8
CO[C@H]1CN(C)C(=O)c2cc(NC(=O)c3ccc(F)cc3)ccc2OC[C@H](C)N(C(=O)CC2CC2)C[C@@H]1C | -2.0 | -2.0 | 0.1
COc1ccc(CNC(=O)N(C)C[C@H]2OCc3ccccc3-c3ccccc3C(=O)N([C@H](C)CO)C[C@@H]2C)cc1 | 12.3 | 7.7 | 4.6
CC(C)C#Cc1ccc([C@H]2[C@@H](C#N)N(C(=O)c3cccc(F)c3)[C@@H]2CO)cc1 | -3.0 | -0.6 | -2.4
O=C(C[C@@H]1CC[C@@H]2[C@H](COC[C@H](O)CN2Cc2ccc(Oc3ccccc3)cc2)O1)N1CCN(c2ccccc2)CC1 | u | x | x
CCC(=O)Nc1ccc2c(c1)C(=O)N(C)C[C@@H](OC)[C@H](C)CN(CC1CCOCC1)[C@@H](C)CO2 | -0.9 | -0.2 | -0.7
COCC(=O)Nc1ccc2c(c1)C(=O)N(C)[C@H]1CC[C@@H](CC(=O)NCCc3ccccc3)O[C@@H]1CO2 | -2.6 | -5.4 | 2.9
C[C@@H]1CN([C@@H](C)CO)C(=O)c2cccc(NS(=O)(=O)c3ccc(Cl)cc3)c2O[C@@H]1CN(C)C(=O)Nc1ccc2c(c1)OCO2 | -1.8 | -4.7 | 3.0
COc1ccc(C[C@@H]2CCn3cc(nn3)COC[C@H](C)NC2=O)cc1 | 3.8 | 4.3 | -0.5
N#C[C@H]1[C@@H](c2ccc(C3=CCCCC3)cc2)[C@@H](CO)N1C(=O)c1ccccn1 | 2.8 | -1.0 | 3.8
CN(C)C(=O)c1cccc(-c2ccc([C@@H]3[C@@H](CO)N4CCCCN(C(=O)C5CCC5)C[C@H]34)cc2)c1 | 28.8 | 17.7 | 11.1

One compound at a time, from the list above. Screens in order: DUX4 inh | DUX4 inh difference | DUX4 inh control
Record of O=C1CN(S(=O)(=O)Cc2ccccc2)C[C@@H]2[C@H](c3ccc(C#CCC4CCCC4)cc3)[C@H](CO)N12 → u | x | x
Record of CCC(=O)Nc1ccc2c(c1)C(=O)N(C)C[C@@H](OC)[C@H](C)CN(CC1CCOCC1)[C@@H](C)CO2 → -0.9 | -0.2 | -0.7
Record of CN(C)C(=O)c1cccc(-c2ccc([C@@H]3[C@@H](CO)N4CCCCN(C(=O)C5CCC5)C[C@H]34)cc2)c1 → 28.8 | 17.7 | 11.1

(further entries)
SMILES | DUX4 inh | DUX4 inh difference | DUX4 inh control
CC(C)C#Cc1ccc([C@H]2[C@@H](CO)N3C(=O)CN(C(=O)C4CCCCC4)C[C@H]23)cc1 | 2.3 | 1.4 | 0.9
O=C(N[C@@H]1CC[C@@H](CCn2cc(-c3ccccc3)nn2)O[C@@H]1CO)c1ccccc1F | 0.9 | 4.4 | -3.5
O=C(C[C@H]1C[C@H]2c3cc(NC(=O)C4CCC4)ccc3O[C@H]2[C@H](CO)O1)NCC1CC1 | 2.7 | -1.2 | 4.0
O=C(Nc1cccc(F)c1)N1C[C@@H]2[C@H](c3ccccc31)[C@H](CO)N2C(=O)c1ccccn1 | -0.3 | -3.7 | 3.4
C[C@H](CO)N1C[C@H](C)[C@@H](CN(C)S(=O)(=O)c2ccc(C#N)cc2)OCc2ccccc2-c2c(n(C)c3ccccc23)C1=O | u | x | x
Cc1noc(C)c1S(=O)(=O)Nc1ccc2c(c1)C(=O)N([C@@H](C)CO)C[C@H](C)[C@@H](CN(C)S(=O)(=O)c1ccc(F)cc1)OCCCC[C@H](C)O2 | -3.9 | -2.5 | -1.4
C[C@@H]1CN([C@H](C)CO)C(=O)CCCn2cc(nn2)CO[C@H]1CN(C)Cc1cccnc1 | -2.7 | -3.3 | 0.5
COc1ccccc1C(=O)Nc1ccc2c(c1)C(=O)N(C)[C@@H]1CC[C@@H](CC(=O)NCc3ccc(Cl)c(Cl)c3)O[C@H]1CO2 | -3.9 | -0.8 | -3.1
CN1c2ccc(-c3ccccc3)cc2[C@H]2[C@H](CCN2C(=O)CC2CC2)[C@@H]1CO | 2.1 | 10.9 | -8.8
CC1C=NC(S(=O)(=O)N2CC[C@H]3[C@@H](CO)N(C)c4ccc(-c5cccc(F)c5)cc4[C@H]32)=N1 (stereo partly specified) | 27.8 | 21.7 | 6.1
COCCNC[C@@H]1[C@@H](c2ccccc2)[C@@H](CO)N1c1nc(C)c(C)s1 | -2.3 | -4.9 | 2.6
COc1ccc2c3c(n(C)c2c1)[C@@H](CO)NCC31CN(Cc2ccccc2F)C1 | -0.6 | 1.4 | -2.0
CO[C@H]1CC[C@H]2CCN(C)C(=O)[C@H](C)N(C)C(=O)c3cc(C#N)ccc3OC[C@@H]1O2 | 3.8 | 0.9 | 3.0
